High-throughput results deposited in PubChem BioAssay by National Center for Advancing Translational Sciences (NCATS).
VDR inh = vitamin D3 receptor (human) inhibition; P11473; VDR-SRC2-3 peptide fluorescence polarization, 2 h; Potency, µM, for inactives: max response, negative = inhibition, usual class: inhibitors; actives 0.93% (n = 400,000); AID 504847; active = well fitted inhibition curve with a large enough effect; inconclusive = small, poorly fitted or top-dose-only effect, or another doubt; inactive = no such curve, though single readings can be large or run the other way; note: series mostly up to about 120 µM
Target sequence (P11473 whole entry, looked up): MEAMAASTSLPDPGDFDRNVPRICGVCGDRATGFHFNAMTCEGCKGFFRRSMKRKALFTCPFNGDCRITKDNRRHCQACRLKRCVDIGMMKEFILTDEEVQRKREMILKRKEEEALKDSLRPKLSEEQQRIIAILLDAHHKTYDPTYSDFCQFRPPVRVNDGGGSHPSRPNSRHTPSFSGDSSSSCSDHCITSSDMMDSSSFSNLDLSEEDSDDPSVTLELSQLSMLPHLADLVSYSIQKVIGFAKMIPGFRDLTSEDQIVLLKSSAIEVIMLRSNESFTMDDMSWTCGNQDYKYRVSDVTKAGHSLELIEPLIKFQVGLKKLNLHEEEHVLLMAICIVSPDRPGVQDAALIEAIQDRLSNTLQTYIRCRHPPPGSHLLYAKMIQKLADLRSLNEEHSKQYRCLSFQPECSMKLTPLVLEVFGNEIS
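VDR–SRC2-3 interaction, FP format. Cmpds 23 nl via pintool, brief spin, 2 h ambient incubation.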
* hit, by the source's call; & = joins results of further samples. % is set by controls: 0 for no effect and ±100 for the full control effect; potency is the fitted concentration of half-maximal effect. This is a subset; rates above refer to the full screens.

Results for Cc1ccccc1CCN(CC(=O)NC1CCCCC1)C(=O)c1csnn1 ?
VDR inh: -1%

What do the screens show for `COCc1ccc(CN2CCCC(C(=O)Nc3ccc(-c4cscn4)cc3)C2)o1` (stereo unspecified)?
VDR inh: 22%

Results for CCC(=O)Nc1nc(OC)cc(OC)n1 ?
VDR inh: 10%

How did COc1ccc(CCNC(=O)C2CCN(S(=O)(=O)c3cnc[nH]3)CC2)cc1OC do in these assays?
VDR inh: 12%

How did COC(=O)c1ccc(OCC(O)CN2CCC(C)CC2)cc1 (stereo unspecified) do in these assays?
VDR inh: -5%

How did O=C(N/N=C/c1ccc(Cl)s1)c1ccccc1[N+](=O)[O-] do in these assays?
VDR inh: 9%

How did CCCOc1cc(N(CC)CC)ccc1/C=C(/C#N)c1nc2ccc(C)cc2[nH]1 do in these assays?
VDR inh: 4%

How did CCOC(=O)C1CCN(c2ccccc2CN2CCN(c3ccccc3OCC)CC2)CC1 do in these assays?
VDR inh: -5%

What do the screens show for `CC[Si](CC)(CC)O[C@H]([C@@H](C)COCOC)[C@@H](C)COCc1ccc(OC)cc1`?
VDR inh: -4%

How did CCN(CC)c1ccc(-n2c(O)c(C=C3N=c4ccccc4=N3)sc2=S)cc1 do in these assays?
VDR inh: -21%

How did CC(=O)Oc1ccccc1C(=O)O do in these assays?
VDR inh: 1%&9%&-26%

What do the screens show for `CCC(Oc1cc(Cl)ccc1Cl)C(=O)NN1C(=O)C2C3CCC(C3=C(C)C)C2C1=O` (stereo unspecified)?
VDR inh: -9%

What do the screens show for `CCCOc1ccc(S(=O)(=O)NCc2ccc(OC)cc2)cc1`?
VDR inh: 4%

How did CCc1ccc(OCC(=O)NNC(=O)C2CCN(c3ncnc4sc(C)c(C)c34)CC2)cc1 do in these assays?
VDR inh: 3%

Results for CCc1ccc(/C(C)=N/NC(=O)CNC(=O)/C=C/c2ccco2)cc1 ?
VDR inh: 16%

What do the screens show for `CC(C)(C)OC(=O)N1CCC[C@H]1c1nnc(SCc2c(F)cccc2Cl)o1`?
VDR inh: -7%

What do the screens show for `CC(C)C1Cc2c(sc(NC(=S)NC(=O)c3ccccc3)c2C#N)CO1` (stereo unspecified)?
VDR inh: -23%

What do the screens show for `COc1ccc(C(=O)Cn2c(N3CCCCC3)nc3c2c(=O)n(C)c(=O)n3C)cc1OC`?
VDR inh: -12%

How did Cc1cc(NC(=O)c2ccccc2)sc1C do in these assays?
VDR inh: 9%

What do the screens show for `COc1cccc2c1cc1c(=O)n(CC(=O)N3CCN(c4ccc(Cl)cc4)CC3)nc(C)n12`?
VDR inh: 5%

How did N[C@@H](Cc1ccc(O)cc1)c1nnc([C@H](CC(=O)O)NC(=O)C2CCNCC2)o1 do in these assays?
VDR inh: -11%

Results for O=C(Nc1ccc(S(=O)(=O)N2CCC(C(=O)NC3CCCCC3)CC2)cc1)c1ccco1 ?
VDR inh: -13%

Results for COc1cccc(CNC(=O)c2ccc(-c3nc(COc4ccccc4)c(C)o3)cc2)c1 ?
VDR inh: 5%

What do the screens show for `COc1cccc(-c2c(C(=O)N/N=C/C3CC=CCC3)nnn2-c2nonc2N)c1` (stereo unspecified)?
VDR inh: -2%

Results for CCCCC/C(=N\NC(=O)Nc1ccccc1)c1ccccc1 ?
VDR inh: -24%

What do the screens show for `Cc1ccsc1C(=O)N1CCCC(N(C)Cc2ccccc2)C1` (stereo unspecified)?
VDR inh: 7%

What do the screens show for `CCCn1c(-c2ccc(S(=O)(=O)N3CCOCC3)cc2)csc1=Nc1ccc(OCC)cc1`?
VDR inh: 17%

What do the screens show for `O=C(c1ccco1)N1N=C(c2ccco2)CC1c1ccc(Cl)cc1Cl` (stereo unspecified)?
VDR inh: inconclusive

Results for COc1ccc(-n2c3c(cc(C(=O)N4CCC(C)CC4)c2=O)C(=O)CC(C)(C)C3)cc1 ?
VDR inh: -7%

Results for COc1cc(-c2noc(C)c2/C=C/c2ccc(N)cc2)cc(OC)c1OC ?
VDR inh: 17%

What do the screens show for `Cc1cc(C)nc(/N=C2\NC(=O)CC(C(=O)O)N2c2ccc(Cl)cc2Cl)n1` (stereo unspecified)?
VDR inh: -7%

What do the screens show for `COc1ccc(NC(=S)Nc2cccc(S(=O)(=O)N3CCCCC3)c2)cc1`?
VDR inh: -1%

What do the screens show for `Cc1ccc2nc(NC(=O)CSc3nccn3Cc3ccc(F)cc3)sc2c1`?
VDR inh: 9%

Results for O=C(COC(=O)COc1ccc(Cl)cc1Cl)NC1CCS(=O)(=O)C1 (stereo unspecified) ?
VDR inh: 5%

Results for O=C(Nc1ccc2c(c1)OCO2)c1c(F)cccc1F ?
VDR inh: 6%

What do the screens show for `CCc1cc(C(=O)Nc2ccccc2)cs1`?
VDR inh: 0%

Results for COc1ccc(-c2nnc3sc(COc4ccc(C)cc4)nn23)cc1 ?
VDR inh: 6%

What do the screens show for `CCOC(=O)c1c(NC(=O)CC2SC(N)=NC2=O)sc(C)c1C` (stereo unspecified)?
VDR inh: -3%

How did COc1ccc(/C=C(/NC(=O)c2ccccc2)C(=O)NCC2CCCO2)cc1 (stereo unspecified) do in these assays?
VDR inh: -19%

Results for O=[N+]([O-])c1ccc(/C([O-])=C(/C(=S)Nc2ccccc2F)[n+]2ccccc2)cc1 ?
VDR inh: -13%

What do the screens show for `O=C(CCCN1C(=O)CCC1=O)Nc1ccccc1F`?
VDR inh: -14%

How did CCN(CC(=O)NCCCN1CCOCC1)S(=O)(=O)c1ccc(F)cc1 do in these assays?
VDR inh: -6%

Results for CCOc1cc(N2CCOCC2)c(OCC)cc1NC(=O)c1oc2ccccc2c1C ?
VDR inh: -3%

What do the screens show for `O=C(O)CCCCCN1C(=O)C(=O)/C(=C(/O)c2ccccc2)C1c1ccccc1` (stereo unspecified)?
VDR inh: -9%

How did Fc1ccc(-c2cn3cc(Cc4ccccc4)sc3n2)cc1 do in these assays?
VDR inh: 4%

How did O=c1cc(-c2cccc(F)c2)[nH]c2cc(Cl)ccc12 do in these assays?
VDR inh: 0%

What do the screens show for `CC1=CCC(C(C)(C)O)CC1` (stereo unspecified)?
VDR inh: 9%

How did CSc1ccccc1C(=O)NCCCn1ccnc1 do in these assays?
VDR inh: 5%

What do the screens show for `O=C(O)C1C2C=CC(C3CC23)C1C(=O)NCCc1ccccc1` (stereo unspecified)?
VDR inh: 14%

Results for CC1=C(C(=O)Nc2ccccc2)C(c2ccncc2)C(C#N)=C(SCC(=O)NC(C)C)N1 (stereo unspecified) ?
VDR inh: -9%

What do the screens show for `CCC(NC(=O)CCc1c(C)c2cc3c4c(oc3cc2oc1=O)CCCC4)C(=O)O` (stereo unspecified)?
VDR inh: 11%

Results for CCOC(=O)C1CCN(C(c2cc3c(C)ccc(C)c3[nH]c2=O)c2nnnn2C2CCCCC2)CC1 (stereo unspecified) ?
VDR inh: 3%

How did Cc1ncsc1CCOC(=O)c1cccnc1 do in these assays?
VDR inh: 8%

Results for COc1cc(N2C(=O)C=CC2=O)c(OC)cc1Cl ?
VDR inh: 28µM*

How did O=C(N/N=C/c1ccc2c(c1)OCO2)c1ccc2ccccc2n1 do in these assays?
VDR inh: -1%

How did CCOC(=O)Cn1nc(/C=C/c2ccccc2)ccc1=O do in these assays?
VDR inh: -1%

Results for CCN1C(=O)C2C(c3cccc(F)c3)NC(CC)(C(=O)OC)C2C1=O (stereo unspecified) ?
VDR inh: 7%

What do the screens show for `Cc1cc(C)c(/C=C/c2onc(C)c2S(=O)(=O)N2CCC(C(=O)NCC(C)c3ccccc3)CC2)c(C)c1` (stereo unspecified)?
VDR inh: 3%

Results for CCN(CC)C(=O)Oc1ccc2c(=O)c(-c3ccccc3)coc2c1 ?
VDR inh: -3%

How did Oc1ccc2n[nH]nc2c1 do in these assays?
VDR inh: 15%

How did CCC1(CC)C(=O)N=C2c3ccccc3C(=O)N21 do in these assays?
VDR inh: 10%

What do the screens show for `O=c1c2ccccc2nc(-c2ccc([N+](=O)[O-])cc2)n1O`?
VDR inh: -6%

How did COc1cc(C(=O)NCc2nnc(SCC(=O)Nc3cc(C)cc(C)c3)o2)cc(OC)c1OC do in these assays?
VDR inh: -8%

Results for CC(=O)c1ccc(N2CCN(C(=O)C3CCC3)CC2)cc1 ?
VDR inh: 3%

Results for O=c1c2ccccc2c(C=Nc2ccc(S(=O)(=O)N3CCCCC3)cc2)c(O)n1-c1ccc(Cl)cn1 ?
VDR inh: -9%

What do the screens show for `Cc1cc(=O)c2c(O)c3c(O)cc(O)c4c5c(O)cc(O)c6c(O)c7c(=O)cc(C)c8c1c2c(c34)c(c65)c78`?
VDR inh: inconclusive

How did CC(=O)Nc1ccc(N)cc1 do in these assays?
VDR inh: -1%

Results for CCN(CC)C(=O)c1ccc2c(c1)N(Cc1ccc(C(F)(F)F)cc1)C(=O)c1ccccc1S2 ?
VDR inh: inconclusive

What do the screens show for `CCCCN1C(=S)NC[C@@H]1Cc1ccccc1`?
VDR inh: 6%

Results for O=C(O)CCCC(=O)N1N=C(c2ccccc2)CC1c1ccc2c(c1)OCO2 (stereo unspecified) ?
VDR inh: -1%

Results for Cc1ccc(S(=O)(=O)NN2C(=O)/C(=C/c3ccc(C(=O)O)cc3)SC2=S)cc1 ?
VDR inh: inconclusive

How did Cc1cc(O)cc(O)c1C(=O)Cc1cscn1 do in these assays?
VDR inh: -1%

What do the screens show for `CCN1C(=O)/C(=C2/Sc3ccc(OC)cc3N2C)SC1=Nc1ccc(OC)cc1`?
VDR inh: -7%

Results for CS(=O)(=O)N(CCc1ccccc1)CC(=O)NCc1cccnc1 ?
VDR inh: -2%

Results for COC(=O)c1ccccc1NC(=O)C(=O)NCc1ccncc1 ?
VDR inh: inconclusive

Results for CCOC(=O)c1cc(OC(=O)c2cccs2)n(-c2ccccc2)n1 ?
VDR inh: 0%

How did COc1ccc(-c2cc(Cl)cc3c(=O)c4ccccc4n(C)c23)cc1F do in these assays?
VDR inh: 1%

Results for CC1CCC(CN2CCN=C2N(C)C)CC1 (stereo unspecified) ?
VDR inh: -5%

How did COc1ccccc1-c1ocnc1C(=O)N1CCN(S(=O)(=O)c2ccc(NC(C)=O)cc2)CC1 do in these assays?
VDR inh: -8%

What do the screens show for `COc1ccc(CN(C)CC(=O)NC(C)c2ccccc2)cc1OC` (stereo unspecified)?
VDR inh: -5%

What do the screens show for `COc1ccc(Cl)cc1-n1c(CCC(=O)O)ccc1-c1ccc(C)cc1`?
VDR inh: -7%

How did CC1=C(C(=O)Nc2ccc(C)cc2)C(c2ccccc2Cl)n2nnnc2N1 (stereo unspecified) do in these assays?
VDR inh: inconclusive

How did CS(=O)(=O)N1CCC2(CC1)OCCN2S(=O)(=O)c1ccccc1 do in these assays?
VDR inh: -10%

What do the screens show for `Cc1cccc(C)c1NC(=O)CN(C)C(=O)C(c1ccccc1)c1ccccc1`?
VDR inh: -1%

Results for Brc1ccc(CNc2cc3c(cc2Br)OCCO3)cc1 ?
VDR inh: -11%

What do the screens show for `CSc1cc(/C=N/O)c(SC)s1`?
VDR inh: -5%

What do the screens show for `COc1ccc([N+](=O)[O-])cc1NC(=O)c1cc(C)c(C)o1`?
VDR inh: -11%

How did CC(C(=O)Nc1nc2ccccc2s1)n1cc([N+](=O)[O-])cn1 (stereo unspecified) do in these assays?
VDR inh: -6%

What do the screens show for `Nc1ncnc2c1ncn2[C@@H]1O[C@H](COP(=O)(O)CP(=O)(O)OP(=O)(O)O)[C@@H](O)[C@H]1O`?
VDR inh: 4%&-5%

Results for CCc1nccn1S(=O)(=O)c1ccc(C)c(C)c1 ?
VDR inh: -10%
